Source: PubChem BioAssay
HSD17B inhib – inhibitors of human HSD17B10 dehydrogenase; recombinant HSD17B10, NADH fluorescence kinetic; many of its hits are not listed in these tables; Potency, µM (top dose mostly 57.1 µM), for inactives: at the top dose activity change, negative = inhibition, usual class: inhibitors; 75,000 compounds, 7.6% hits; AID 893; active = well fitted inhibition curve with a large enough effect; inconclusive = small, poorly fitted or top-dose-only effect; inactive = no such curve, though single readings can be large or run the other way;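 also: the protocol describes HADH2 (HSD17B10) and not the HSD17B4 of the title; nearly all actives have a fitted effect of over 70% in size; most hits overshoot -100% by far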
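20 nM HADH2, pH 9.0 Tris/Tween; cpd preinc 15 min RT; start w/ 1 mM NAD+ + 90 uM b-hydroxybutyryl-CoA; kinetic fluor ex360/em450 q30s x 4 min; delta last-first.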
* = called active by the depositor; [ ] = dose if it differs, or a comment. % is scaled to controls: 0 for no effect and ±100 for the full control effect; potency is read from the fitted curve at half-maximal effect. A portion of the library; the hit share may differ from the screen's.

For O=C(Cn1c(=O)sc2ccccc21)Nc1nc2c(s1)CCCC2 the results were HSD17B inhib 10.3%.
CC(C)OCCCNc1nc2c(c(=O)n(Cc3ccccc3F)c(=O)n2C)n1C was read as HSD17B inhib 7.1%.
`Cc1cc(C(=O)COC(=O)C2=COCCO2)c(C)n1-c1ccc2c(c1)OCO2` gave HSD17B inhib -10.3%.
Cc1oc(-c2ccccc2F)nc1CS(=O)CC(=O)NCc1ccc2c(c1)OCO2 (stereo unspecified) was read as HSD17B inhib -1.9%.
For C=CCN1C(=O)C(C)(C)N(C(C)=O)c2ccccc21 the results were HSD17B inhib 2.6%.
Screening Cc1nn(-c2cccc(C(=O)O)c2)c(C)c1Oc1ccccc1O returned HSD17B inhib -20.5%.
Clc1ccc(Oc2nc(Oc3ccc(Cl)cc3)nc(N3CCOCC3)n2)cc1 was read as HSD17B inhib 2.5%.
CCOc1ccc2[nH]c(=O)c(CN(Cc3ccc(F)cc3)C(=O)c3ccco3)cc2c1 was read as HSD17B inhib 31.6µM*.
For O=C(NCCOc1ccccc1)C1CCCN1C(=O)c1cccs1 (stereo unspecified) the results were HSD17B inhib 10.5%.
Cc1cc([C@](C)(N)C(=O)O)ccc1P(=O)(O)O was read as HSD17B inhib -9.8%.
Cc1nc2ncnn2c(N2CCN(C(=O)c3cccc(F)c3)CC2)c1Cc1ccccc1 was read as HSD17B inhib 4.4%.
Screening COC(=O)CSc1ncccc1-c1nc2ccccc2[nH]1 returned HSD17B inhib -27.6%.
`CCn1c(SCC(=O)Nc2ccc(S(N)(=O)=O)cc2)nnc1-c1cccc(OC)c1` gave HSD17B inhib -2.3%.
Nc1c(O)cccc1C(=O)C[C@@H](N)C(=O)O was read as HSD17B inhib -3.9%[25.6 µM].
`Cc1cc(C(F)F)n2nc(C(=O)Nc3ccccc3Br)nc2n1` gave HSD17B inhib -8.5%.
Screening O=C(C1CCC1)N1CCc2cc(S(=O)(=O)NCCN3CCN(c4ccccc4F)CC3)ccc21 returned HSD17B inhib -7.4%.
Cc1cccc(Nc2ncc3c(n2)CC(C)CC3=O)c1 (stereo unspecified) was read as HSD17B inhib 7.8%.
Screening Nc1ccc(Cl)cc1Cl returned HSD17B inhib 1.0%.
COc1ccc(N=c2oc3c(OC)cccc3cc2C(=O)NCc2ccco2)c(OC)c1 was read as HSD17B inhib 6.7%.
Screening COc1ccccc1N1CCN(C(=O)N2CCOCC2)CC1 returned HSD17B inhib -0.9%.
`CCOc1ccccc1/C=c1\sc2ncnn2c1=O` gave HSD17B inhib 9.2%.
COC(=O)N1CCC2(CCCN(Cc3ccccc3OC)C2)CC1 was read as HSD17B inhib -0.5%.
Screening CC(=O)Nc1ccc(S(=O)(=O)N2CCN(C(C)CCc3ccccc3)CC2)cc1 (stereo unspecified) returned HSD17B inhib 6.3%.
Screening CCN1CCN(C(=O)C2CCN(Cc3nc(-c4cccc(Cl)c4)oc3C)CC2)CC1 returned HSD17B inhib 12.5%.
Screening COC(=O)c1ccccc1NC(=O)C1CCCN(S(=O)(=O)c2ccccc2)C1 (stereo unspecified) returned HSD17B inhib inconclusive.
`COC(=O)N1CCc2cc(OC)c(OC)cc2C1Cc1ccc(OC)cc1` (stereo unspecified) gave HSD17B inhib 4.5%[11.4 µM].
O=C1CCC(=O)N1OCCCOc1ccc2c(c1)CCC2 was read as HSD17B inhib 0.3%.
`C/C(=N\O)c1cccc[n+]1Cc1ccccc1` gave HSD17B inhib 11.4%[11.4 µM].
Screening O=C1CN(C(=O)COC(=O)CCC(=O)c2ccc3c(c2)OCCO3)c2ccccc2N1 returned HSD17B inhib -12.0%.
Screening Cc1ccccc1Cn1cc(S(=O)(=O)CC(=O)Nc2nccs2)c2ccccc21 returned HSD17B inhib -3.1%.
For Cn1c(=O)[nH]c(=O)c2c1nc(SCC(=O)O)n2CCc1ccccc1 the results were HSD17B inhib -11.4%.
Screening Cc1nn(-c2cccc(C(F)(F)F)c2)c(Cl)c1/C=N/n1cnnc1 returned HSD17B inhib -5.5%.
Screening C1=C(c2ccccc2)CCN(c2nc3ccccc3n3cnnc23)C1 returned HSD17B inhib -23.2%.
CCOC(=O)Cn1c(CN(Cc2ccccc2)Cc2ccccc2)nc2c1c(=O)[nH]c(=O)n2C was read as HSD17B inhib 2.7%.
NCCSSCCN was read as HSD17B inhib -1.4%[11.4 µM].
Screening Cc1cc(C)nc(SCc2nnc(SCC#N)n2-c2cccc(Cl)c2)n1 returned HSD17B inhib 6.8%.
For CCc1ccccc1N(CC(=O)N1CCN(c2ccc(F)cc2)CC1)S(C)(=O)=O the results were HSD17B inhib -5.4%.
For O=C(c1cnccn1)N1CCC[C@@]2(CCN(c3cccc(-c4ccccc4)c3)C2)C1 the results were HSD17B inhib -2.0%.
CCCCN(C)C(=O)c1ccc2c(c1)N(CC)C(=O)c1ccccc1S2(=O)=O was read as HSD17B inhib 3.3%.
For CCCc1cc(N2CCN(c3ccccn3)CC2)n2nc(C)c(-c3ccccc3)c2n1 the results were HSD17B inhib 7.94µM*.
Screening Cc1c(/C=N/n2cnnc2)c2ccccc2n1CCOc1ccc(Cl)cc1 returned HSD17B inhib -17.6%.
`CCOc1ccc(NC(=O)N(C2CCCCC2)C(C)c2ccncc2)cc1` (stereo unspecified) gave HSD17B inhib 13.3%.
COc1ccc(N2CCN(CC(=O)Nc3ccc(-n4cnnn4)cc3)CC2)cc1 was read as HSD17B inhib 6.9%.
Screening CC(=O)N1CCC2(CC1)CN(c1cccc(-c3ccccc3)c1)C2 returned HSD17B inhib 31.6µM*.
For CC(=O)Oc1ccc(Oc2ccc(-c3noc(C)n3)cc2)cc1 the results were HSD17B inhib 5.9%.
Screening O=C(O)Cn1cnc2scc(-c3cccs3)c2c1=O returned HSD17B inhib -13.6%.
For Cc1ccc(OCC(=O)N2CCN(C(=O)CCC3CCCC3)CC2)cc1 the results were HSD17B inhib -1.5%.
CCN(CC)S(=O)(=O)c1ccc(C(=O)Nc2nnc(C(C)C)s2)cc1 was read as HSD17B inhib -15.8%.
For COc1ccc2nc(-n3c(C)ccc3C)sc2c1 the results were HSD17B inhib 5.4%.
For Cc1ccc(CNC(=O)C2CCCN(c3nc4ccccc4o3)C2)cc1 (stereo unspecified) the results were HSD17B inhib -3.1%.
COc1ccc(NC(=O)COc2nc(N(C)C)nc(N(C)C)n2)cc1 was read as HSD17B inhib 3.3%.
`CN(C)C=NC(=O)/C(C#N)=C1\CCc2ccccc2N1` gave HSD17B inhib -18.2%.
CCN(CC)C(=O)COc1ccc2oc(C)c(C(=O)OC(C)C)c2c1 was read as HSD17B inhib -12.1%.
`CCC(C(=O)Nc1ccccc1C(=O)N1CCCC1)N1C(=O)c2ccccc2C1=O` (stereo unspecified) gave HSD17B inhib -1.7%.
CCN1CCN(C(=O)Cn2ncc3ccsc3c2=O)CC1 was read as HSD17B inhib 8.4%.
For COc1c(C)cccc1C(=O)Nc1cc(-c2nn3c(C)nnc3s2)ccc1C the results were HSD17B inhib -8.9%.
For CCOC(=O)c1ccc(NC(=O)Nc2c(C)nn(C)c2C)cc1 the results were HSD17B inhib 4.5%.
`OC1CCN(C(c2ccc3ncccc3c2)c2nnnn2C2CCCCC2)CC1` (stereo unspecified) gave HSD17B inhib -5.7%.
O=C(CCCN1C(=O)c2ccccc2C1=O)Nc1c2c(nc3c1CCC3)CCC2 was read as HSD17B inhib 3.9%.
Screening CCSc1nnc(NC(=O)C2CCCN(S(=O)(=O)c3cnc[nH]3)C2)s1 (stereo unspecified) returned HSD17B inhib 7.8%.
Screening CCCn1cc(S(=O)(=O)CC(=O)NC2CCCCC2)c2ccccc21 returned HSD17B inhib 3.8%.
For CN(C)C(=O)c1ccc(-c2cc(NCc3cccs3)ncn2)cc1 the results were HSD17B inhib 1.2%.
For Cc1cc(C)n2nc(C(=O)OCCOc3ccc(F)cc3)nc2n1 the results were HSD17B inhib 0.8%.
`COC(=O)c1ccc(NC(=O)CSc2nnc(COc3ccc4c(c3)CCCC4)o2)cc1` gave HSD17B inhib 9.1%.
`COc1ccc(-n2nc(C(=O)NCC(=O)NCc3ccco3)c3ccccc3c2=O)cc1Cl` gave HSD17B inhib inconclusive.
Screening CC1CN(Cc2nc3c(c(=O)n(C)c(=O)n3C)n2Cc2cccc(Cl)c2)CC(C)O1 (stereo unspecified) returned HSD17B inhib inconclusive.
`CCOc1cc(C(=O)Nc2ncccn2)cc(OCC)c1OCC` gave HSD17B inhib 8.8%.
Cc1ccc(NC2SC(=O)N(Cc3cccc(C(=O)O)c3)C2=O)cc1 (stereo unspecified) was read as HSD17B inhib -2.9%.
COc1ccc(C2CC3(CC(C)(C)NC(=O)N3)Oc3cc(O)ccc32)cc1 (stereo unspecified) was read as HSD17B inhib 11.8%.
CC1CC(C)CN(C(=O)CCCn2c(=S)[nH]c3ccccc3c2=O)C1 (stereo unspecified) was read as HSD17B inhib -15.3%.
For CC(=O)c1cccc(NC(=O)c2cccc(S(=O)(=O)N(C)C)c2)c1 the results were HSD17B inhib 5.6%.
For CC(CCC(=O)O)(c1ccc(O)cc1)c1ccc(O)cc1 the results were HSD17B inhib 2.8%[11.4 µM].
For N#CCSc1nnc(Cc2ccc3c(c2)OCO3)o1 the results were HSD17B inhib -6.8%.
Screening O=C1c2ccccc2C(=O)c2c(NC(=O)c3ccc4c5c(ncnc35)-c3ccccc3C4=O)cccc21 returned HSD17B inhib 5.0%[11.4 µM].
For CN1C(=S)SC(C)(C)C1(C)NO (stereo unspecified) the results were HSD17B inhib -7.7%.
`COc1ccc2c(=O)c(CC(=O)O)coc2c1` gave HSD17B inhib -4.4%.
For CC(C)OC(=O)Cn1c(=O)oc2ccccc21 the results were HSD17B inhib 5.7%.
Cn1c(=O)oc2cc(S(=O)(=O)Nc3cccc(F)c3)ccc21 was read as HSD17B inhib 7.2%.
CCC(Sc1nc(-c2ccccc2)c(C#N)c(=O)[nH]1)C(=O)Nc1cc(C)on1 (stereo unspecified) was read as HSD17B inhib -8.6%.
Screening CC(C)COC(=O)NCC12C=CC(O1)C1C(=O)N(c3ccc(Cl)cc3)C(=O)C12 (stereo unspecified) returned HSD17B inhib -19.9%.
CC1CCCO1 (stereo unspecified) was read as HSD17B inhib -1.5%.
CCOC(=O)Nc1ccc2c(c1)N(C(=O)N(C)C)c1ccccc1CC2 was read as HSD17B inhib 2.5%.
CSc1nsc(SC)c1NC(=O)OCC1CCCO1 (stereo unspecified) was read as HSD17B inhib 2.9%.
`Cc1cccc2cc(C(c3nnnn3C(C)(C)C)N3CCN(C(=O)c4ccco4)CC3)c(=O)[nH]c12` (stereo unspecified) gave HSD17B inhib -14.3%.
`CCCCOc1cccc(NC(=O)CSc2nccn2C)c1` gave HSD17B inhib 8.2%.
Screening COc1cccc(-n2c(CNC(=O)OC(C)(C)C)n[nH]c2=S)c1 returned HSD17B inhib -2.6%.
For CC1(C)C(c2ccccc2)=NC(c2ccccc2)N1O (stereo unspecified) the results were HSD17B inhib 2.5%.
`O=C(OCc1cc2ccccc2[nH]c1=O)C1CCCO1` (stereo unspecified) gave HSD17B inhib -11.7%.
For COC(=O)C1C2C=CC3(CN(CCc4ccccc4)C(=O)C13)O2 (stereo unspecified) the results were HSD17B inhib 3.1%.
Screening O=C(Nc1ccc2ccccc2c1)N1CCN(c2ncccc2C(F)(F)F)CC1 returned HSD17B inhib 15.8µM*.
Screening O=C(NCCN1CCCCC1)c1ccc(I)cc1 returned HSD17B inhib -4.1%.
Screening CCCCCCCCCCCCCc1ccco1 returned HSD17B inhib 4.0%.
`CCC[C@@H]1C[C@@]1(CCC)C(NC(=O)OCc1ccccc1)c1ccc(-c2ccccc2)cc1` (stereo partly specified) gave HSD17B inhib -10.5%.
Screening COc1ccc(C(=O)Oc2cccnc2)cc1OC returned HSD17B inhib 1.8%.
COC(=O)[C@@]1(Cc2ccc(OC)cc2)[C@H]2c3cc(C(=O)N(C)C)n(Cc4ccc(C)c(F)c4F)c3C[C@H]2CN1C(=O)c1ccccc1 was read as HSD17B inhib 3.7%.
Cc1cc(-c2[nH]nc3c2C(c2ccsc2)C(C#N)=C(N)O3)c(C)s1 (stereo unspecified) was read as HSD17B inhib inconclusive.
`COc1ccc(CC(=O)NC2CCN(Cc3nnnn3C(C)(C)C)CC2)cc1OC` gave HSD17B inhib 3.5%.
Screening Cn1c(=O)[nH]c(=O)c2c1nc(N1CCOCC1)n2CCCSc1ncccn1 returned HSD17B inhib 2.0%.
COc1ccc(OC)c(NC(=O)C2CCCN2C(=O)C2CCC(C)CC2)c1 (stereo unspecified) was read as HSD17B inhib 3.3%.
Screening CC1CCCN(C(=O)CSc2nnc(-c3c[nH]c4ccccc34)o2)C1 (stereo unspecified) returned HSD17B inhib -6.8%.
`C=CCn1c(NCc2ccc3c(c2)OCO3)nc2ccccc21` gave HSD17B inhib 3.6%.
For CCOC(=O)c1c(N)sc2c1C1CCN2CC1 the results were HSD17B inhib -6.0%.
`CC1CC(=O)N(Cc2ccccc2)c2ccccc2N1C=O` (stereo unspecified) gave HSD17B inhib 3.6%.

Already shown: an excerpt of the list.
`COc1ccc(CC(=O)NC2CCN(Cc3nnnn3C(C)(C)C)CC2)cc1OC` gave HSD17B inhib 3.5%.
Screening Cn1c(=O)[nH]c(=O)c2c1nc(N1CCOCC1)n2CCCSc1ncccn1 returned HSD17B inhib 2.0%.
COc1ccc(OC)c(NC(=O)C2CCCN2C(=O)C2CCC(C)CC2)c1 (stereo unspecified) was read as HSD17B inhib 3.3%.
Screening CC1CCCN(C(=O)CSc2nnc(-c3c[nH]c4ccccc34)o2)C1 (stereo unspecified) returned HSD17B inhib -6.8%.
`C=CCn1c(NCc2ccc3c(c2)OCO3)nc2ccccc21` gave HSD17B inhib 3.6%.
For CCOC(=O)c1c(N)sc2c1C1CCN2CC1 the results were HSD17B inhib -6.0%.
`CC1CC(=O)N(Cc2ccccc2)c2ccccc2N1C=O` (stereo unspecified) gave HSD17B inhib 3.6%.
